FGF22 binding: binders of recombinant human FGF22 by thermal shift. Q9HCT0. SYPRO orange fluorescence; percent of sucrose octasulfate shift, DMSO zero. calls only at 9.99 µM. actives 1.5% (n = 340,000). AID 651658;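 active = melting point raised past a set limit in the mean and every replicate; three in four hits are not shown here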
Target sequence (Q9HCT0 whole entry, looked up): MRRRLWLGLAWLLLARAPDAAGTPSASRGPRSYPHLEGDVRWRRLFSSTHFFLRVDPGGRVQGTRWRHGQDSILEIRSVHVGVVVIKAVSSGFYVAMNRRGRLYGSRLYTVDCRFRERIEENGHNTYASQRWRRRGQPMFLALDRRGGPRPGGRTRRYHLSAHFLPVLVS
LANA-H2A inh: blocks KSHV LANA binding to histone H2A/H2B | actives 0.6% (n = 320,000) | cell-free LANA-H2A/H2B peptide, fluorescence polarization | inhibition, % (test concentration not listed); in the data active = inhibition mostly above about 10%, no sharp cut-off; inactive = mostly below about 6.7%;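 also: stock transfer was 7.5 nL into about 10 µL; 0% = median of vehicle wells and 100% = median of positive control wells; one replicate is shown; the record names a cut of 25% in any replicate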
B2AR ag: activates human beta-2 adrenergic receptor causing internalization; Am2.2-beta2AR cells, FAP receptor internalization, flow cytometry; reference of the scale not given here; response, % (no concentration beside the values); actives 0.43% (n = 340,000); AID 504454;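 active = response above a set limit, near 3 SD of response in nonfluorescent compounds, cut at about 42% in these data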;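 also: stock transfer was 100 nL into about 11 µL; a reference agonist was the positive control; negative values mostly stem from fluorescent compounds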
UCH37 inh: human UCH37 deubiquitinating enzyme inhibition | Q9Y5K5 | AID 588478 | actives 0.33% (n = 330,000) | inhibition, % (concentration not given with the values) | purified proteasome/UCH37, Ub-AMC cleavage fluorescence;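 active = mean of two replicates above 20%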;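 also: 0% = compound-free wells with enzyme and 100% = wells lacking proteasome; stock transfer was 100 nL into about 20 µL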
Target sequence (Q9Y5K5 whole entry, looked up): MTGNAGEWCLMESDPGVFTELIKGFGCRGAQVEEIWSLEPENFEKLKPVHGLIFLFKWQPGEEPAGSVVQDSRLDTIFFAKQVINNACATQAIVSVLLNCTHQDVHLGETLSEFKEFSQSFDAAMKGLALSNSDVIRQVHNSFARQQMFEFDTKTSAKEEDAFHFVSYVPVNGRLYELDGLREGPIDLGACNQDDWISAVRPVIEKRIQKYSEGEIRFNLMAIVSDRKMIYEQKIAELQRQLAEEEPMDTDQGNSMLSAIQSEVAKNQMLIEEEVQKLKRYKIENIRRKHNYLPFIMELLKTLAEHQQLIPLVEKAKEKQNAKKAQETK
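Assay system: Proteasome-bound UCH37. Buffer or medium: pH 7.4 Tris-HCl (50 mM) with ovalbumin, ATP-MgCl2, DTT. Incubation: 30 min preincubation with enzyme, 25 min cleavage at room temperature. Measured by: fluorescence, ex 355 nm, em 460 nm. Read-out basis: percent inhibition. Control set: wells without proteasome as full block, compound-free enzyme plus substrate as uninhibited.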
HNF4A DNA FP: change in binding of human HNF4 alpha to DNA; activity change, % at 10 µM; actives 0.3% (n = 360,000); HNF4a-FITC DNA binding, fluorescence polarization, 1 h; in the data active = activity change above about 30%, passing the limit was not always enough;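 also: controls were the assay level and a saturating level of protein; the project sought stronger binding though the title names inhibitors; some compounds called inactive have numbers as strong as hits; positive values seem to mean higher polarization but the record does not say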
Target sequence (P41235 whole entry, looked up): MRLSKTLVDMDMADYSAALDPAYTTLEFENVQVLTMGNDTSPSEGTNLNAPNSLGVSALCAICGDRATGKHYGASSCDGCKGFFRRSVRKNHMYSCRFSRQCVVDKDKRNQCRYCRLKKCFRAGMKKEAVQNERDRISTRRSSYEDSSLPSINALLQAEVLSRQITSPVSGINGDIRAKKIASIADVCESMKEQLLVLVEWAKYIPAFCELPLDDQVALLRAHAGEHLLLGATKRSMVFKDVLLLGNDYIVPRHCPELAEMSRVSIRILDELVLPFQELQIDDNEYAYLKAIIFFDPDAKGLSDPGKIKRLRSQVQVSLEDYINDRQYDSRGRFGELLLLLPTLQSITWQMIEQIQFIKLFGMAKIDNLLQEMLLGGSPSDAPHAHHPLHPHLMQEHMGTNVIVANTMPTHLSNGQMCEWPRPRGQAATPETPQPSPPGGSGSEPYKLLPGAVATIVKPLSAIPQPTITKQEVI
ALR H2O2 inh: blocks human ALR sulfhydryl oxidase activity; P55789; purified ALR, DTT oxidation, H2O2 HRP-luminol luminescence; inhibition, % (concentration not given with the values); actives 3.8% (n = 290,000);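 active = mean and each replicate at 75% or more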;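 also: stock transfer was 7.5 nL into about 7.5 µL; 0% = neutral wells and 100% = wells with inactivated enzyme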
Ecoli growth: inhibitors of Escherichia coli growth | actives 0.21% (n = 330,000) | OD600 absorbance (test concentration not listed) | OD600, 23 h; stronger effect = lower value;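 active = OD600 absorbance below the run mean of sample wells minus 3.6 SD, in any replicate, cut at about 0.56 in these data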;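 also: stock transfer was 300 nL into about 60 µL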
* hit, by the source's call; i = inactive; · = not tested or not shown. The list is partial (hit frequency here may not be typical).

Second line of a record: B2AR ag, HNF4A DNA FP, ALR H2O2 inh, UCH37 inh, LANA-H2A inh, FGF22 binding, Ecoli growth
[1] CC(C)(C)c1ccc(S(=O)(=O)N2CCN(CC(O)CN3CCOCC3)CC2)cc1 (centres undefined)
→ -1, 3.9, ·, 1.8, 2.6, i, 0.7
[2] CCn1cc(S(=O)(=O)Nc2ncccn2)cn1
→ -3, -1.2, -7, 2.0, -3.3, i, 0.68
[3] CC(OC(=O)CC1CCCCC1)C(=O)Nc1cccc(C#N)c1 (centres undefined)
→ 1, -7.8, 0, 2.2, 1.1, i, 0.65
[4] CCCNC(=O)c1ccccc1SCc1c(C)noc1C
→ -2, -0.2, -2, 0.2, 1.0, i, 0.66
[5] COc1cc(SC)ccc1C(=O)N(Cc1ccccc1)c1ccccc1
→ 13, 1.8, -13, 5.0, -0.6, i, 0.72
[6] CCOC(=O)c1nc(C)c(C(C)=O)s1
→ 1, 2.4, ·, -1.9, 4.3, i, 0.68
[7] Cc1cc(-c2csc(NC(=O)c3ccc(=O)[nH]c3)n2)c(C)n1Cc1ccco1
→ -2, -53, ·, 1.4, 6.3, ·, 0.68
[8] O=S(=O)(Nc1ccccc1N1CCOCC1)c1cccs1
→ 2, -1.0, -25, 1.3, -0.9, i, 0.7
[9] COC(=O)[C@]1(Cc2ccccc2)N[C@H](c2ccc(-c3ccc(F)cc3)cc2)[C@@H]2C(=O)N(C)C(=O)[C@@H]21
→ 6, -3.3, -1, 1.5, -1.9, i, ·
[10] O=C(NCc1ccco1)C1OCCc2ccccc21 (centres undefined)
→ -3, -2.2, 5, -1.2, -0.4, ·, 0.76

The list goes on (five carried over from the part before).
Second line of a record: B2AR ag, HNF4A DNA FP, ALR H2O2 inh, UCH37 inh, LANA-H2A inh, FGF22 binding, Ecoli growth
[6] CCOC(=O)c1nc(C)c(C(C)=O)s1
→ 1, 2.4, ·, -1.9, 4.3, i, 0.68
[7] Cc1cc(-c2csc(NC(=O)c3ccc(=O)[nH]c3)n2)c(C)n1Cc1ccco1
→ -2, -53, ·, 1.4, 6.3, ·, 0.68
[8] O=S(=O)(Nc1ccccc1N1CCOCC1)c1cccs1
→ 2, -1.0, -25, 1.3, -0.9, i, 0.7
[9] COC(=O)[C@]1(Cc2ccccc2)N[C@H](c2ccc(-c3ccc(F)cc3)cc2)[C@@H]2C(=O)N(C)C(=O)[C@@H]21
→ 6, -3.3, -1, 1.5, -1.9, i, ·
[10] O=C(NCc1ccco1)C1OCCc2ccccc21 (centres undefined)
→ -3, -2.2, 5, -1.2, -0.4, ·, 0.76
[11] OC(CN1CCOCC1)(c1ccccc1)c1ccccn1 (centres undefined)
→ 3, 1.2, -5, 5.0, 0.9, i, 0.65
[12] O=S(=O)(NC1CCCCCCC1)c1cccs1
→ -2, 6.4, ·, -1.1, 3.0, ·, 0.72
[13] CC(Sc1nnc2c(n1)[nH]c1ccccc12)C(=O)NC1CCCCC1 (centres undefined)
→ -17, -1.4, -5, 3.8, -5.6, i, 0.7
[14] CC1CCCCC1NS(=O)(=O)c1ccc(S(=O)(=O)NCc2ccncc2)cc1 (centres undefined)
→ ·, ·, -6, 1.4, 2.5, ·, 0.74
[15] COc1ccc([C@H]2CC(=O)C=C(c3cccc(C(C)C)c3)C2)cc1OC
→ -20, 1.9, -11, 5.4, 2.6, i, ·
[16] O=C(Nc1cccnc1)c1ccc2c(c1)C(=O)N(CC1CCCO1)C2=O (centres undefined)
→ -12, 1.4, 2, 4.3, -0.6, i, 0.66
[17] COc1ccccc1-c1cc(N)n(S(=O)(=O)c2ccc(F)c(C)c2)n1
→ -2, 1.3, 7, 2.4, 0.0, i, 0.73
[18] CCOC(=O)/C(C#N)=N/Nc1ccc(S(=O)(=O)Nc2cc(OC)nc(OC)n2)cc1
→ -8, -3.2, 61, ·, -0.1, ·, ·
[19] Cc1ccc(-n2nc3c(c2NC(=O)c2ccc(Br)o2)CSC3)c(C)c1
→ 9, -9.3, -6, 1.1, 5.4, ·, 0.7
[20] Cc1nn(CC(=O)Nc2ccc(C(=O)N(C)C)cc2)c(=O)c2ccccc12
→ 8, 3.3, -12, 1.7, 4.0, ·, 0.65
[21] CNS(=O)(=O)c1ccc(NC(=O)c2cncc(Br)c2)cc1
→ -2, 1.6, -3, 1.4, 1.1, i, 0.66
[22] CCOc1ccccc1Nc1nc(N)nc(Cl)c1CC
→ -5, 3.6, ·, 1.5, ·, i, 0.68
[23] Cc1cc(C)c(NC(=O)/C(=C/c2ccccc2)c2ccccc2)c(C)c1
→ -7, 0.8, -7, 0.6, -7.8, i, 0.65
[24] O=C(NC(=S)NCc1ccco1)c1ccc(Br)cc1
→ -7, 0.1, -18, ·, -3.1, i, ·
[25] O=C(OCc1ccc(C(=O)c2ccccc2)cc1)c1cccc(-c2nnc(-c3ccccc3)o2)c1
→ -2, 1.1, -13, 0.6, 0.5, i, 0.71
[26] COc1ccc(CN2CC(C(=O)NCCc3ccc(C)cc3)CC2=O)cc1 (centres undefined)
→ -10, 0.8, -1, -1.8, -3.4, ·, 0.75
[27] CCOc1ccc(S(=O)(=O)N(CC(=O)NCc2cccnc2)c2ccc(C)cc2)cc1
→ -16, -1.0, -8, 1.7, -4.8, i, 0.7
[28] CCOc1ccccc1C(=O)NCc1ccc2c(c1)OCO2
→ 3, 0.8, 6, 4.5, 3.0, ·, 0.7
[29] CC(=O)N1CCC(=NNS(=O)(=O)c2ccc(C)c([N+](=O)[O-])c2)CC1
→ 3, 3.4, -4, 5.0, 4.6, ·, 0.72
[30] O=C(Nc1nnc(-c2ccccc2)s1)c1ccc(F)cc1
→ 4, 0.3, -10, -2.8, 3.7, i, 0.64
[31] CCc1c(C)nc2ncnn2c1Nc1ccc(C)c(C)c1
→ -6, 2.0, -1, 1.2, 0.6, ·, 0.71
[32] COc1ccc(CCNC(=O)CCN2C(=O)C3CC=CCC3C2=O)cc1OC (centres undefined)
→ -4, -0.7, -10, -0.9, -4.5, ·, 0.72
[33] Cc1cccc(NC(=O)c2cc(-c3c(C)cc(C)cc3O)n[nH]2)c1
→ 6, 0.2, -7, 0.7, 6.2, i, 0.73
[34] O=S(=O)(NCc1ccc(Cl)cc1Cl)c1cccs1
→ -1, 1.4, 1, 5.9, 3.0, i, 0.72
[35] Cc1cccc(N(CC(=O)NC2CCCCC2)C(=O)CCCC(=O)Nc2ccccn2)c1C
→ 0, 0.0, 0, 0.5, -5.2, i, 0.69
[36] CN1CCN(S(=O)(=O)c2ccc(N(C)Cc3cccs3)nc2)CC1
→ -1, 0.1, ·, 6.1, -0.2, ·, 0.71
[37] COc1cc(C=NCC2OCCc3ccccc32)cc(OC)c1 (centres undefined)
→ -6, 4.7, -4, -1.2, 18*, i, 0.71
[38] OC(CNCc1ccc(Cl)cc1)(c1ccccc1)c1ccc(F)cc1 (centres undefined)
→ 5, 0.4, -4, 2.9, 3.7, i, 0.63
[39] CCC(C)NC(=O)c1nn(Cc2ccccc2)c(=O)c2ccccc12 (centres undefined)
→ -2, 5.3, -2, 2.8, -2.8, i, 0.72
[40] O=C(N/N=C\c1ccc(CN(Cc2ccc(Cl)cc2)S(=O)(=O)c2ccccc2)o1)C(=O)Nc1ccc(F)cc1
→ 1, 4.3, -2, ·, -3.2, ·, ·
[41] CC1=CC(C)(C)N2C(=O)C(=Nc3ccc(O)cc3)c3cccc1c32
→ -1, 1.2, 97*, 1.2, 0.9, ·, 0.71
[42] Cc1ccc(OCCn2c(C3CC(=O)N(Cc4ccccc4)C3)nc3ccccc32)cc1 (centres undefined)
→ -2, 0.3, -74, 5.5, 3.3, i, 0.69
[43] O=C1CCC(C(=O)N2CCN(c3ccc(F)cc3)CC2)CN1CC1CCCCC1 (centres undefined)
→ 2, 1.9, 64, 3.6, -2.6, i, 0.68
[44] COc1ccc(CN2CC(=O)N3[C@H]4c5cc(C)ccc5OC[C@@H]4[C@H](c4ccccc4)[C@]3(C)C2=O)cc1
→ 9, -22, -5, 0.8, 4.1, i, ·
[45] Fc1ccc(-n2nnc(-c3ccccc3Br)n2)cc1
→ 2, 5.6, -6, 1.7, 2.8, i, 0.7
[46] FC(F)(F)c1cccc(Cc2noc(CN(Cc3ccccn3)CC3CCCO3)n2)c1 (centres undefined)
→ -3, 1.9, ·, 3.0, 2.3, i, 0.68
[47] CCOC(=O)Cn1nnnc1CN1CCN(c2ccc(OC)cc2)CC1
→ 5, 0.5, 92*, 0.3, 7.2, ·, 0.69
[48] CCc1ccc(NC(=O)CSc2nncn2-c2cccnc2)cc1
→ -17, -1.6, -4, -0.8, -4.3, i, 0.62
[49] Cc1ccc(C)c(NC(=O)Cn2nc(-c3ccccc3)nc2-c2ccccc2)c1
→ -4, 0.3, -4, 2.7, 2.8, ·, 0.73
[50] CC1=C(n2nnc3ccccc32)C(c2ccccc2)C(C#N)=C(N)O1 (centres undefined)
→ 2, 2.4, -9, -1.2, -1.2, ·, 0.61
[51] Cc1ccc(S(=O)(=O)/N=C2\C=C(NS(=O)(=O)c3ccccc3)C(=O)c3ccccc32)cc1
→ -4, 1.4, ·, ·, ·, i, ·
[52] CC(C)c1ccc(NC(=O)CSc2nc3ncccc3[nH]2)cc1
→ -7, -1.2, 55, 4.4, -0.5, i, 0.68
[53] C=CCN1C(=O)CN=C1Nc1cc(C)cc(C)c1
→ 9, 4.0, -3, -3.1, -2.9, ·, 0.7
[54] CC(NC1CCN(Cc2ccccc2)CC1)c1ccc(F)cc1 (centres undefined)
→ 3, 1.8, -4, 2.4, -2.9, i, 0.65
[55] CC1CCCC(C)N1/N=C/c1cccc([N+](=O)[O-])c1 (centres undefined)
→ -4, -3.8, 3, ·, 3.5, i, ·
[56] CSCCNC(=O)c1cccc(Cl)c1
→ 5, 0.5, -3, 0.7, 1.4, i, 0.63
[57] CC(C)C[C@H](NC(=O)c1nc[nH]c1C(=O)N1CCc2ccccc2C1)C(=O)OC(C)(C)C
→ 2, 3.4, -7, 2.4, -0.7, i, ·
[58] Cc1ccc(C(=O)NCC(=O)OC2CCCCC2=O)cc1C (centres undefined)
→ -3, -2.6, 4, 3.6, 4.4, i, 0.68
[59] COc1ccc(N(CC(=O)NCc2ccco2)C(=O)CCC(=O)Nc2nccs2)cc1
→ -4, -0.9, -1, 0.0, -1.1, i, 0.64
[60] CN(C)CC(C)(C)CNS(=O)(=O)c1ccc(OC(F)(F)F)cc1
→ -12, 0.3, -16, -1.2, 0.1, i, 0.65

Further records
Second line of a record: B2AR ag, HNF4A DNA FP, ALR H2O2 inh, UCH37 inh, LANA-H2A inh, FGF22 binding, Ecoli growth
[61] CC(C)(Oc1ccc(Cl)cc1)C(=O)N(Cc1ccccc1)c1ccccn1
→ 16, -0.5, -70, 3.2, 1.3, i, 0.72
[62] CC(=O)Nc1cccc(NC(=O)CSc2ncc(-c3ccc(Cl)cc3)n2Cc2ccco2)c1
→ 16, 2.1, 92*, 4.2, -5.5, ·, 0.74
[63] CCCc1ccc(S(=O)(=O)NCCc2ccncc2)cc1
→ 14, -2.0, -1, 1.2, -3.9, ·, 0.69
[64] CCOc1ccccc1N1CSC2=C(C#N)C(c3c(OC)ccc4ccccc34)CC(=O)N2C1 (centres undefined)
→ 3, 3.0, -6, ·, 0.1, i, ·
[65] O=C(CSc1nnc(-c2ccco2)o1)NC(=O)C1COc2ccccc2O1 (centres undefined)
→ 7, 1.5, -4, 2.5, 0.5, ·, 0.68
[66] Cc1nnc(-c2ccccc2)nc1N1CCOCC1
→ -3, -2.0, -4, 1.4, -4.7, ·, 0.72
[67] N#Cc1ncc(C(F)(F)F)cc1Sc1ccc(N)cc1
→ 0, 0.7, 82*, 3.3, -2.3, ·, 0.77

Screening data (PubChem)
